RanGTP-Impb inh: inhibitors of RanGTP-importin-beta interaction, primary screen, biochemical, FRET, CFP-Ran, YFP-importin-beta, homogeneous; Ran GTPase (GTP-bound) - importin-beta complex; cell-free CFP-Ran/YFP-importin-beta FRET ratio; inhibition, % (concentration not given with the values); 1.1% of 300,000 active; AID 2216, 2009;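 active = most replicates above 15%; inconclusive = exactly half above 15%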;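 note: 0% = DMSO wells and 100% = Ran loaded with GDP instead of GTP; wells of about 40 µL received 100 nL stock; the first replicate is given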
Calb FLC: C. albicans growth inhibition with fluconazole, primary screen, CaCi-2 strain, Alamar Blue fluorescence. growth inhibition, % (concentration not given with the values). AID 1979, 2009. 0.57% of 300,000 active. C. albicans CaCi-2 (fluconazole-resistant clinical isolate) + fluconazole, 48 h;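 active = most replicates above 75%; inconclusive = exactly half above 75%; inactive = most below 75%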;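 note: all wells also contain fluconazole at 8 µg/ml as a sub-toxic cotreatment; 0% = median of DMSO wells and 100% = median of geldanamycin control wells; wells of about 8 µL received 7.5 nL stock; the first replicate is given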
ALR H2O2 inh: inhibitors of human ALR sulfhydryl oxidase, primary screen, biochemical, H2O2 detection, HRP-luminol luminescence, single point; FAD-linked sulfhydryl oxidase ALR (Homo sapiens), P55789; purified ALR, DTT oxidation; inhibition, % (test concentration not listed); 3.8% of 290,000 active; AID 485317, 2010;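 active = mean and each replicate at 75% or more; inconclusive = only one of the two met; inactive = neither met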;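 note: stock transfer was 7.5 nL into about 7.5 µL; 0% = neutral wells and 100% = wells with inactivated enzyme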
HNF4A DNA FP: change in binding of human HNF4A to DNA, primary screen, biochemical, fluorescence polarization, FITC-DNA; Hepatocyte nuclear factor 4-alpha (Homo sapiens), P41235; 1 h; activity change, % at 10 µM; 0.3% of 360,000 active; AID 1224865, 2016; in the data active = activity change above about 30%, passing the limit was not always enough;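 note: controls were the assay level and a saturating level of protein; the project sought stronger binding though the title names inhibitors; some compounds called inactive have numbers as strong as hits; positive values seem to mean higher polarization but the record does not say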
Vif A3G: inhibitors of Vif binding to APOBEC3G peptide, primary screen, biochemical, TR-FRET, GST-Vif 1-94, biotin-A3G peptide, dose response retest (AID 1117319) | Virion infectivity factor (Human immunodeficiency virus type 1 group M subtype B (isolate … | inhibition, %; hits with a dose series show IC50 in µM | 0.57% of 260,000 active | TR-FRET GST-Vif / biotin-A3G peptide binding; higher % means a stronger effect; test concentration not given here; strong numbers were not always called active;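 active = above the screen mean plus three standard deviations and confirmed in dose response; inconclusive = results disagree or hit not tested in dose response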;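 note: Vif residues 1-94 fused to GST binding biotinylated APOBEC3G peptide 110-148; 0% = full assay without inhibitor and 100% = GST in place of GST-Vif; retest series ran down from 100 µM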
Beta2AR agonist: beta2AR agonists driving receptor internalization, primary screen, cell-based, FAP fluorogen, flow cytometry; Beta-2 adrenergic receptor (Homo sapiens), P07550; Am2.2-beta2AR cells; reference of the scale not given here; response, % (test concentration not listed); 0.43% of 340,000 active; AID 504454, 2011;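 active = response above a set limit, near 3 SD of response in nonfluorescent compounds, cut at about 42% in these data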;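 note: stock transfer was 100 nL into about 11 µL; a reference agonist was the positive control; negative values mostly stem from fluorescent compounds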
LANA-H2B inh: blockers of LANA interaction with H2A/H2B – biochemical, FP readout, HTS, primary screen; cell-free LANA-H2A/H2B peptide, fluorescence polarization; inhibition, % (test concentration not listed); 0.6% of 320,000 active; in the data active = inhibition mostly above about 10%, no sharp cut-off; inactive = mostly below about 6.7%;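 note: stock transfer was 7.5 nL into about 10 µL; 0% = median of vehicle wells and 100% = median of positive control wells; one replicate is shown; the record names a cut of 25% in any replicate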
Target sequence (Q9QR71 whole entry, looked up): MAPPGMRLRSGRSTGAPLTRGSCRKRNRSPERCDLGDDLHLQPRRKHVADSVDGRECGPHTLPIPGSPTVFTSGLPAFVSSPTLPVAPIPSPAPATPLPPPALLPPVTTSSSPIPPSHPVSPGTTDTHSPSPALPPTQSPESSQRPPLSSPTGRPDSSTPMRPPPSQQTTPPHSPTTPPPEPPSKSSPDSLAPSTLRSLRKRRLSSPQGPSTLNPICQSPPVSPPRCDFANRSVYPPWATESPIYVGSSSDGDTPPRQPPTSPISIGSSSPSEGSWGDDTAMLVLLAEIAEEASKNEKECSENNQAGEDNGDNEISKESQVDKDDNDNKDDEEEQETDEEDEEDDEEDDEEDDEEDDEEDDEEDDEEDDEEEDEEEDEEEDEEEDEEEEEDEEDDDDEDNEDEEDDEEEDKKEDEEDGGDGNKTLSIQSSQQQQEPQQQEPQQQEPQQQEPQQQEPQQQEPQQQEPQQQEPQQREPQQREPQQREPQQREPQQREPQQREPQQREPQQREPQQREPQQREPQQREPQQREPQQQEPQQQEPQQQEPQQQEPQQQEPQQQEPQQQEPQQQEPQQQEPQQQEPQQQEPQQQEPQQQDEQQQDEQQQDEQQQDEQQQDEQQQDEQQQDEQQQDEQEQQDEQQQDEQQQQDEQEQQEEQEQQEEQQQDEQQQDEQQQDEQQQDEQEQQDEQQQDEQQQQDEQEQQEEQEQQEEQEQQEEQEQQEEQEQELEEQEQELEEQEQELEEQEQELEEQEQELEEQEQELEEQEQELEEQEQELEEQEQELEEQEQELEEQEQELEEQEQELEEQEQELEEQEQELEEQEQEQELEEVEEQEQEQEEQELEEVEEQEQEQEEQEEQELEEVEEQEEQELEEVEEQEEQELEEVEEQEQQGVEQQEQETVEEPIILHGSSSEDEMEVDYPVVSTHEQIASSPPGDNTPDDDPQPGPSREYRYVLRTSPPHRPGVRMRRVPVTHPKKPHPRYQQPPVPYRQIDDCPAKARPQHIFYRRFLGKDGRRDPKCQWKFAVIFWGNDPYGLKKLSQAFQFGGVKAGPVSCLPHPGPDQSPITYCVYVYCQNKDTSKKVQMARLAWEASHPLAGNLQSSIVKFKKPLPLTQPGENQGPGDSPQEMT
Numbers without * were called inactive; i = inactive; ? = inconclusive; · = no result given; & = joins results of further samples.

SMILES	RanGTP-Impb inh	Calb FLC	ALR H2O2 inh	HNF4A DNA FP	Vif A3G	Beta2AR agonist	LANA-H2B inh
O=C(NCc1n[nH]c(=S)n1-c1ccc(Cl)c(Cl)c1)c1ccc(S(=O)(=O)N2CCCCC2)cc1	-1.4	-3.8	89.2*	-0.8	·	2.8	0.3
Nc1cccc(C(=O)O)c1	?	-3.8	·	-2.1	26.0%	-1.6	6.8&-11.4
COc1ccc(/C=C2\SC(N)=NC2=O)cc1Cl	0.5	2.0	-3.1	1.6	·	7.0	7.2
Cc1ccccc1S(=O)(=O)Cc1ccc(C(=O)NCCN2CCN(Cc3ccccc3)CC2)o1	5.3	-5.7	-7.1	0.1	21.8%	12.2	-11.2
Cc1cccc(N2CCN(C(=O)C(NS(=O)(=O)c3cccs3)c3ccccc3)CC2)c1C (stereo not given)	?	11.0	-11.8	-0.9	27.1%	3.4	-5.6
O=C(COC(=O)c1ccc(O)cc1)c1ccc(S(=O)(=O)N2CCCCC2)cc1	·	·	-1.3	2.7	-3.3%	6.8	·
O=C(N/N=C/c1ccccc1[N+](=O)[O-])c1ccncc1	3.8	-2.8	-4.1	0.0	-5.1%	-7.2	2.6
O=C(Nc1cccc(S(=O)(=O)N2CCOCC2)c1)c1ccccn1	-1.0	-0.8	-7.1	2.3	·	-14.3	3.3
O=C(COc1cccnc1[N+](=O)[O-])Nc1ccc(N2CCOCC2)cc1	-0.9	-5.5	-6.4	-2.7	-0.9%	-3.9	-1.4
Cc1ccc(-c2cc(C(=O)NCc3cn(C)nc3C)c3cc(Br)ccc3n2)cc1	-4.4	-2.6	2.4	29.1	-18.7%	5.5	i
CCCCN1CCN=C1N(C)C	·	·	·	-5.0	·	1.9	-0.1
CS(=O)(=O)c1ccc(-c2nnc(NC(=O)c3ccco3)o2)cc1	2.6	-8.6	-14.7	1.2	-7.5%	8.3	-7.4
O=C(c1cc2cc(Cl)ccc2[nH]1)N1CCN(C(=O)c2ccco2)CC1	-5.3	1.9	-5.5	-0.2	·	-0.6	-4.0
CC(C)n1ncc2c(C(=O)NCCc3ccc(F)cc3)cc(C3CC3)nc21	·	·	·	-2.7	-10.8%	11.1	·
CCN(C(=O)COC(=O)CNC(=O)c1ccc(C)c(C)c1)C1CCS(=O)(=O)C1 (stereo not given)	-2.2	12.0	-12.6	6.2	-3.1%	-1.5	0.9

Taken from the listing, two compounds:
SMILES	RanGTP-Impb inh	Calb FLC	ALR H2O2 inh	HNF4A DNA FP	Vif A3G	Beta2AR agonist	LANA-H2B inh
O=C(NCc1n[nH]c(=S)n1-c1ccc(Cl)c(Cl)c1)c1ccc(S(=O)(=O)N2CCCCC2)cc1	-1.4	-3.8	89.2*	-0.8	·	2.8	0.3
Nc1cccc(C(=O)O)c1	?	-3.8	·	-2.1	26.0%	-1.6	6.8&-11.4

Next section
SMILES	RanGTP-Impb inh	Calb FLC	ALR H2O2 inh	HNF4A DNA FP	Vif A3G	Beta2AR agonist	LANA-H2B inh
Cc1ccc(N=C2NC(=O)/C(=C/c3cccnc3)S2)cc1C	1.3	-6.4	5.9	0.9	6.8%	1.9	2.1
CC(Oc1nc2c(c(=O)n(C)c(=O)n2C)n1C)C1CCCCC1 (stereo not given)	·	·	·	1.0	-7.4%	-10.1	·
COC(=O)c1cn(C(=O)c2cc(Br)ccc2Cl)c2ccccc12	-2.6	4.9	-4.0	1.6	·	-1.4	4.3
O=[N+]([O-])c1cccc(C(O)C23CN4CN(CN(C4)C2)C3)c1 (stereo not given)	-1.4	-24.6	-13.0	1.7	?	5.6	6.9
COc1ccccc1-n1cnc2sc(C)c(C)c2c1=O	1.6	12.0	5.6	2.6	-2.4%	-1.8	-2.3
CCc1ccc2[nH]c(=O)c(C(c3nnnn3CC3CCCO3)N3CCCc4ccccc43)cc2c1 (stereo not given)	-3.7	1.2	-42.9	-2.5	?	2.2	-4.3
S=c1[nH]nc(-c2ccncc2)n1/N=C/c1ccccc1Cl	-0.2	-5.9	0.4	2.1	-5.4%	2.3	3.1
COc1ccc(OC)c(NC(=O)c2ccc(-n3cccn3)nc2)c1	6.4	2.1	-7.1	1.3	-6.1%	-20.6	3.6
O=S(=O)(NCCN1CCOCC1)c1ccc(-c2ccc(S(=O)(=O)NCCN3CCOCC3)cc2)cc1	0.5	6.0	-2.8	4.1	-3.0%	-3.5	4.0
Cc1ccc(OCCN2C(=O)S/C(=C\c3ccc(C)o3)C2=O)cc1	-3.0	-3.2	?	13.9	?	-82.2	-0.5
COc1ccc([C@@]23Oc4cc(OC)cc(OC)c4[C@]2(O)[C@H](O)[C@H](C(=O)N(C)C)[C@H]3c2ccccc2)cc1	·	·	·	3.1	-7.0%	13.1	·
COc1ccccc1CC(=O)c1ccccc1OC	·	·	·	-1.9	7.2%	4.8	·
N#CCSc1ccc2nc(-c3ccccc3)cn2n1	0.6	33.2	-10.5	-1.3	·	5.3	-6.4
O=C(Nc1cccc(S(=O)(=O)N2CCCCC2)c1)c1cncc(Br)c1	·	·	-4.8	2.6	·	14.2	3.3
COc1ccc(CNc2nc(-c3ccccc3)nn2C(=O)c2cccs2)cc1	2.5	0.3	·	2.2	-8.8%	14.0	-2.3
CCN(CC)c1ccc(C(=O)Nn2c(C)nc3ccccc3c2=O)cc1	-0.1	-9.1	·	-1.0	-9.9%	6.5	-0.1
O=C(O)Cn1nc(-c2ccccc2)cc1-c1ccccc1	4.9	2.2	2.3	-0.9	·	1.6	-1.7
O=C(CSc1ccccc1)NCC1(N2CCOCC2)CCCCC1	-0.1	-3.0	-1.5	2.3	0.1%	-1.8	-3.0
CC(C)(C)S(=O)N1Cc2ccc(CO)cc2[C@@H]1CCO (stereo not given in full)	·	·	·	-0.2	-6.7%	-3.1	·
COc1ccc(OC)c(C2CC(=O)Nc3cc(OC)c(OC)c(OC)c32)c1 (stereo not given)	2.7	-3.5	·	1.6	7.7%	-9.5	·
Cn1nc(C(F)(F)F)c2cc(C(=O)N3CCOCC3)sc21	1.3	10.5	-12.6	1.9	-15.0%	0.9	0.4
CCN1CCN(c2ccc(S(=O)(=O)N3CCOCC3)cc2NC(=O)c2ccc(C(F)(F)F)cc2)CC1	9.8	1.5	-3.1	4.1	4.5%	-0.8	-1.7
O=c1cc(-c2ccc(O)cc2)oc2c1ccc1ccccc12	·	·	-0.4	5.1	·	13.1	6.3
C/C(CC(=O)Nc1ccc2c(c1)OCCO2)=N\NC(=O)COc1ccc(C)cc1	-4.2	-18.6	-5.5	-1.0	2.7%	-1.1	-8.0
CC(C)Cc1ccc(C(=O)NCCOc2ccccc2)o1	0.3	-3.8	3.9	2.4	32.3%	-0.3	-3.0
O=C1NC[C@H](c2ccccc2)OC(=O)[C@H](Cc2ccc(F)cc2)C/C=C\C[C@H]1CC(=O)N(CCO)Cc1ccccc1	·	·	4.2	2.1	·	21.5	6.5
CN1C(=O)CCC2(c3ccccc3)CC=C(O)C=C12 (stereo not given)	·	·	·	-0.8	4.6%	8.2	·
Cc1nc2c(N=Nc3ccccc3F)c(N)nn2c(N)c1C#N	1.1	-3.4	-13.9	7.9	-5.3%	9.4	0.5
Cc1nc2ccc(NC(=O)c3cc(S(=O)(=O)N4CCOCC4)ccc3C)cc2s1	-2.0	-0.5	-5.9	-0.3	80.0%	-4.0	-5.1
CC1CN(C(=O)C2(C)CC2(Cl)Cl)CC(C)O1 (stereo not given)	2.3	-9.1	-22.8	-5.0	6.7%	-10.9	-4.3
COc1ccc(CN(C)C(=O)c2cc(S(=O)(=O)NCc3ccccc3)ccc2C)c(OC)c1	·	·	-29.8	-0.3	-3.2%	6.1	-4.0
CC[C@]12c3[nH]c4ccccc4c3CCN1C(=O)C(CC(=O)NC/C=C(\C)CCC=C(C)C)C[C@@H]2C(=O)N1CCN(C(=O)C2CC2)CC1 (stereo not given in full)	·	·	-0.6	1.2	0.7%	0.8	·
CCOC(=O)c1[nH]c2ccc(OC)cc2c1NC(=O)c1ccc(OC)c(OC)c1	3.2	1.7	-3.9	3.9	0.4%	0.9	3.3
COC(=O)c1c(NC(=O)C2CC(C)=C(C)CC2C(=O)O)sc2c1CCCCC2 (stereo not given)	0.4	2.7	94.2*	0.3	-4.6%	4.3	6.2
O=C(O)c1cc(-c2ccco2)nn1-c1cccc(Cl)c1	0.6	11.8	·	-40.8	·	11.3	3.8
CS(=O)(=O)c1ccccc1-c1nnc(NC(=O)CCS(=O)(=O)c2ccc(Cl)cc2)o1	-1.8	3.8	3.1	2.6	5.5%	-3.8	-2.7
COc1ccc([C@H]2CC(=O)C=C(c3ccc(-c4ccccc4)c(F)c3)C2)cc1	·	·	0.5	-1.7	·	6.0	-6.4
Cn1c(SCc2ccc(C(C)(C)C)cc2)nnc1C1COc2ccccc2O1 (stereo not given)	7.0	19.9	-8.0	-2.2	·	-0.1	-1.6
CCN(CC)C(=O)C1CCCN(Cc2ccccc2C(F)(F)F)C1 (stereo not given)	2.6	-7.9	3.0	1.4	2.5%	-3.0	-2.6
CCCCC1CCC(C(=O)N(C)CC(=O)Nc2cccc(F)c2)CC1 (stereo not given)	?	18.3	-7.4	0.5	-0.2%	4.6	-1.3
Cc1ccc(CNC(=O)C2CCCN(c3nc4ccccc4o3)C2)cc1 (stereo not given)	-1.5	6.6	-8.9	-0.7	2.4%	2.8	-0.2
CC(C)(C)OC(=O)CN1C(=O)S/C(=C\c2ccc(-c3cccc(C(=O)O)c3)o2)C1=O	34.5*	1.9	96.6*	·	·	·	2.3
CCC(=O)N1CCc2cc(S(=O)(=O)CCC(=O)N(C)c3ccc(OC)cc3OC)ccc21	?	1.7	-24.6	-2.5	·	-5.8	1.9
COc1ccc(N2CCN(c3oc(COc4ccccc4Cl)nc3C#N)CC2)cc1	2.4	9.6	-4.2	0.3	26.5%	-4.6	-4.1
CN(Cc1cc([N+](=O)[O-])ccc1Cl)C(=O)C[n+]1ccccc1	-0.2	-14.3	-0.1	3.9	-10.9%	4.5	3.1
COc1cc(OC)c(S(=O)(=O)Nc2ccccc2C(=O)O)cc1S(=O)(=O)Nc1ccccc1C(=O)O	4.2	-4.2	·	-0.5	·	-9.8	2.4

Four of these compounds in another layout:
CCCCC1CCC(C(=O)N(C)CC(=O)Nc2cccc(F)c2)CC1 (stereo not given)
  RanGTP-Impb inh: ?
  Calb FLC: 18.3
  ALR H2O2 inh: -7.4
  HNF4A DNA FP: 0.5
  Vif A3G: -0.2%
  Beta2AR agonist: 4.6
  LANA-H2B inh: -1.3
Cc1ccc(CNC(=O)C2CCCN(c3nc4ccccc4o3)C2)cc1 (stereo not given)
  RanGTP-Impb inh: -1.5
  Calb FLC: 6.6
  ALR H2O2 inh: -8.9
  HNF4A DNA FP: -0.7
  Vif A3G: 2.4%
  Beta2AR agonist: 2.8
  LANA-H2B inh: -0.2
CC(C)(C)OC(=O)CN1C(=O)S/C(=C\c2ccc(-c3cccc(C(=O)O)c3)o2)C1=O
  RanGTP-Impb inh: 34.5*
  Calb FLC: 1.9
  ALR H2O2 inh: 96.6*
  HNF4A DNA FP: ·
  Vif A3G: ·
  Beta2AR agonist: ·
  LANA-H2B inh: 2.3
CCC(=O)N1CCc2cc(S(=O)(=O)CCC(=O)N(C)c3ccc(OC)cc3OC)ccc21
  RanGTP-Impb inh: ?
  Calb FLC: 1.7
  ALR H2O2 inh: -24.6
  HNF4A DNA FP: -2.5
  Vif A3G: ·
  Beta2AR agonist: -5.8
  LANA-H2B inh: 1.9
